Hsc70 ATP site = Hsc70 inhibitors, probe displacement, primary screen, biochemical, fluorescence polarization (AID 568); Heat shock cognate 71 kDa protein (Homo sapiens); Hsc70 fluorescence polarization, probe displacement; higher % means a stronger effect; strong numbers were not always called active; displacement, % at 20 µM, or IC50 in µM where a hit was titrated; 83,000 tested, under 10 active;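 active = displacement above 50% without optical interference and an IC50 on retest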;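 note: ATPase domain with a fluorescein-tagged ATP probe; 0% = vehicle and 100% = excess ADP; read after one hour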
WNV NS2B-NS3 inh = inhibitors of WNV NS2B-NS3 protease, primary screen, biochemical, fluorogenic substrate | fluorogenic substrate Ex360/Em465; active compounds read low | z-score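 (tested at a level between 10 and 100 µM)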 | hit rate 0.18% among 65,000;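 active = z-score at -3 or under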;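 note: score is relative to mean and spread of the compound wells of a plate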
Target sequence (P06935 1371-1501 limits assumed): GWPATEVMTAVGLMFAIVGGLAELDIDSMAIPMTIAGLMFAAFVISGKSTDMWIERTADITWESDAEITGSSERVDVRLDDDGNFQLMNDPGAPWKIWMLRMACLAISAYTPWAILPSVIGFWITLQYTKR
Target sequence (P06935 1502-1679 limits assumed): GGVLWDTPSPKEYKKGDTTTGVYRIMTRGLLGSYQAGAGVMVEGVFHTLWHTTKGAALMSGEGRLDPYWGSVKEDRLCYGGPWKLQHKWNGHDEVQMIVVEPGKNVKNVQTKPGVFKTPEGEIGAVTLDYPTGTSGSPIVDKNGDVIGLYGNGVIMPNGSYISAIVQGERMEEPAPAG
MT1-MMP reporter = inhibitors of MT1-MMP promoter transcription, cell-based, luciferase reporter, luminescence (AID 618) | MT1-MMP promoter luciferase reporter cells, luminescence | calls from a first round at 10 µM; hits with a dose series show EC50 in µM | hit rate 0.62% among 87,000;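 active = over half of the reporter light lost at 10 µM or EC50 under 50 µM; inactive = the rest and hits that failed the dose series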;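 note: actives suppress MT1-MMP promoter-driven transcription so potencies describe inhibitors; HT1080 fibrosarcoma cells; overnight exposure; toxic or luciferase-blocking compounds were not removed from the actives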
The depositor's hits bear a star; i = inactive; . = not tested or not shown; + = active, no number. The list is partial; rates above refer to the full screens.

The first 7 compounds, ahead of the listing:
SMILES	Hsc70 ATP site	WNV NS2B-NS3 inh	MT1-MMP reporter
COC(=O)CSc1nc2cc(OC)ccc2cc1C#N	-2.1%	-1.26	i
CCN(Cc1ccccc1)C(c1cccc(C#N)c1)c1nnnn1C(C)(C)C (stereo unspecified)	0.5%	-0.51	i
CCOC(=O)N1CCN(C(=O)c2ccc(N3C(=O)CCC3=O)cc2)CC1	0.7%	1.13	i
Cc1ccc(OCCn2ccc(=O)[nH]c2=O)cc1C	4.0%	-0.3	i
CCN(CC)CCN1C(=O)C(O)=C(C(=O)c2cc3ccccc3o2)C1c1cccnc1 (stereo unspecified)	-0.6%	0.08	i
CCOc1ccc2nc(NC(=O)CSc3nc4c(c(=O)n(C)c(=O)n4C)n3CC)sc2c1	-1.6%	-1.05	i
COc1ccc(-c2csc(N3CCOCC3)n2)cc1OC	-3.2%	-0.43	i

Results, repeating the preview:
SMILES	Hsc70 ATP site	WNV NS2B-NS3 inh	MT1-MMP reporter
COC(=O)CSc1nc2cc(OC)ccc2cc1C#N	-2.1%	-1.26	i
CCN(Cc1ccccc1)C(c1cccc(C#N)c1)c1nnnn1C(C)(C)C (stereo unspecified)	0.5%	-0.51	i
CCOC(=O)N1CCN(C(=O)c2ccc(N3C(=O)CCC3=O)cc2)CC1	0.7%	1.13	i
Cc1ccc(OCCn2ccc(=O)[nH]c2=O)cc1C	4.0%	-0.3	i
CCN(CC)CCN1C(=O)C(O)=C(C(=O)c2cc3ccccc3o2)C1c1cccnc1 (stereo unspecified)	-0.6%	0.08	i
CCOc1ccc2nc(NC(=O)CSc3nc4c(c(=O)n(C)c(=O)n4C)n3CC)sc2c1	-1.6%	-1.05	i
COc1ccc(-c2csc(N3CCOCC3)n2)cc1OC	-3.2%	-0.43	i
CCCN(CCC)c1nc(NC2CCN(C(=O)OCC)CC2)nc(OC)n1	-5.7%	-0.5	i
COc1ccc(C(c2sc3nc(C)nn3c2O)N2CCC3(CC2)OCCO3)cc1 (stereo unspecified)	-2.1%	-0.62	i
Cc1cc(C)cc(OCC(=O)N2N=C(C(F)(F)F)CC2(O)C(C)(C)C)c1 (stereo unspecified)	0.7%	.	i
CCOc1ccc(-c2nnc(-c3ccc(OC)cc3)o2)cc1	4.5%	.	i
COc1ccccc1NC1=NC(C)(C)N=C(N)N1	2.1%	.	i
CC1CCCC(C)N1C(=O)COC(=O)c1ccc[nH]c1=O (stereo unspecified)	-3.0%	-0.45	i
CC(=O)c1cccc(S(=O)(=O)NCC(c2ccco2)N2CCCCC2)c1 (stereo unspecified)	-5.5%	-0.73	i
CCN(C1CCCCC1)S(=O)(=O)c1ccc(S(=O)(=O)N2CCN(CCC#N)CC2)cc1	-1.8%	0.18	i
Cc1cccc2sc(NC(=O)CSc3nc4ccccc4o3)nc12	-0.8%	.	i
O=C(c1csc2c1CCCC2)N1CCN(c2ccc(F)cc2)CC1	1.3%	.	i
COC(=O)c1cccc(OCC(O)Cn2ccnc2)c1 (stereo unspecified)	1.7%	-0.52	i
COCCNC(=S)c1ccc(OC)cc1	7.9%	-0.6	i
Clc1ccc(-n2ncc3c(NCCN4CCOCC4)ncnc32)cc1	2.6%	-0.63	i
Cc1ccc(-c2nnc(-c3ccc(NC(=O)c4ccco4)cc3)o2)cc1	-4.9%	-2.75	i
CC(NC(=O)CN(C1CCCCC1)S(C)(=O)=O)c1ccccc1 (stereo unspecified)	-4.5%	.	i
CCC(C)OC(=O)C1=C(C)NC(=O)NC1c1ccc(F)cc1 (stereo unspecified)	-5.4%	-1.18	i
COC(=O)N1CC(=O)N(OC)C1c1ccc(Cl)cc1Cl (stereo unspecified)	-2.8%	-0.42	i
O=C(Nc1nnc(-c2ccccc2)o1)c1ccc(Cl)cc1	-6.6%	1.62	i
CCCCn1c(SCC(=O)Nc2nc(C)cs2)nnc1-c1cccnc1	2.0%	-0.44	i
CC(Sc1nnc(-c2cc3ccccc3o2)n1-c1ccccc1)C(=O)O (stereo unspecified)	-0.5%	0.92	i
Cc1oc(C)c(C(=O)Nc2ccc(CC(=O)O)cc2)c1C(=O)Nc1ccc(CC(=O)O)cc1	5.0%	-0.44	i
CN(C)C(CNC(=O)c1cccnc1Sc1ccccc1)c1ccco1 (stereo unspecified)	1.6%	-1.53	i
Cc1cc(NC(=O)CSCc2nc(-c3cccc(Cl)c3)oc2C)no1	-1.9%	-0.44	i
O=C(Nc1cccc2ccccc12)N1CCc2ccccc2C1	-6.1%	.	i
CN(C(=S)Nc1ccc(F)cc1)C1(c2ccccc2Cl)CCCCC1=O (stereo unspecified)	6.4%	.	i
CC(C)NCCOCCOc1ccccc1F	1.6%	.	i
N#Cc1c(N)c(C#N)c(-c2ccc3c(c2)OCO3)c2c1CCCC2	-1.7%	1.95	i
CCOCCCn1c(=N)c(C(=O)NCc2ccc3c(c2)OCO3)cc2c(=O)n3ccccc3nc21	8.8%	0.95	i
COC(=O)CSc1nc2nc(C)cc(C)n2n1	4.1%	-0.47	i
CC(C)NC(=O)CC1OC(=O)c2ccccc21 (stereo unspecified)	-1.3%	.	i
Cc1cc(C(C)c2ccccc2)c(O)c(CN2CCOCC2)c1C (stereo unspecified)	4.0%	0.6	i
COc1ccc(CNC(=O)c2ccc(C)o2)cc1	-2.7%	.	i
c1ccc2c(c1)nnn2-c1ncnc2sc3c(c12)CCCC3	9.0%	1.23	i
Cc1ccc(C(=O)/C=C/Nc2ccccn2)cc1	-6.2%	-1.68	+
c1ccc(COc2ccc(OCCCn3cncn3)cc2)cc1	1.8%	0.83	i
O=C(COc1cccc2cccnc12)N1CCc2ccccc2C1	-1.7%	-0.9	i
O=C(Nc1ncc(Cc2ccccc2)s1)C1CCCO1 (stereo unspecified)	-2.2%	1.75	i
O=C(O)c1cccc(OCc2ccccc2Cl)c1	-4.4%	-0.05	i
CCOC(CNC(=O)CCc1c(C)nc2ncnn2c1C)OCC	7.3%	.	i
Cc1ccccc1-n1c(SCC(=O)c2cc(C)n(C)c2C)nnc1-c1ccncc1	0.9%	-0.76	i
COc1cccc(CNC(=O)c2ccc(NC(=O)C3CCCO3)cc2)c1 (stereo unspecified)	-4.8%	-0.03	i
N#Cc1c(C#N)c(-c2ccccc2)n(-c2ccccc2)c1N	2.5%	.	i
O=c1[nH]c2c(s1)C=Nc1ccccc1N2	134.7%	-0.78	i
Cc1noc(NS(=O)(=O)c2ccc(NC(=O)CSc3nc4ccccc4s3)cc2)c1C	0.4%	-0.1	i
CCC(C)(C)n1nnnc1C(c1cc2ccc(C)cc2[nH]c1=O)N(Cc1cccnc1)Cc1ccco1 (stereo unspecified)	-2.5%	-1.89	i
CCOC(=O)Cn1c(=O)oc2cc(S(=O)(=O)NCCc3ccc(C)cc3)ccc21	-2.2%	-0.23	i
CCc1nnc(NC(=O)c2ccc(S(=O)(=O)N(CC)CC)cc2)s1	7.0%	0.18	i
COc1ccc(Cl)cc1S(=O)(=O)N1CCN=C1C	-3.1%	2.37	i
COc1ccc(-c2nn(C)c3sc(C(=O)N4CCOCC4)cc23)cc1OC	-7.3%	0.45	i
CC(C)COc1ccc(Cc2cnc(N)nc2N)cc1	3.9%	.	i
C=CCn1c(SCC(N)=O)nc(C)cc1=O	2.7%	1.27	i
Cc1oc(-c2ccccc2F)nc1CS(=O)(=O)CC(=O)NCCN(C)C1CCCCC1	-4.8%	0.35	i
Cc1nc(Oc2cccc(Cl)c2)c2oc3ccccc3c2n1	-0.3%	.	i

New compounds follow:
SMILES	Hsc70 ATP site	WNV NS2B-NS3 inh	MT1-MMP reporter
CC1(c2ccc3noc(-c4ccc(F)cc4)c3c2)OCCO1	44.1%	.	i
CCOC(=O)N1CCC(n2c(SCC(=O)NCc3ccccc3)nc3ccccc3c2=O)CC1	-3.3%	0.41	i
COc1ccc(C)cc1NC(=O)c1ccc(S(=O)(=O)N2CCOCC2)cc1	0.8%	-0.23	i
CC[C@H](C)[C@H](NS(=O)(=O)c1ccc(C)cc1)C(=O)N1CCC(C(=O)N[C@H](C(=O)O)C(C)C)CC1	-8.0%	0.61	i
CCCOc1cccc(NC(=O)c2c(-c3ccccc3)noc2C)c1	1.0%	0.14	i
COc1cc2c(cc1OC)-c1cc(Nc3ccc4c(c3)OCCO4)nc(=O)n1CC2	5.4%	-0.25	i
Cc1cc(Nc2ccc(Cl)cc2)n(-c2cccc(Cl)c2)n1	4.5%	.	i
CCc1ccc(-c2nc(CN3CCCC(C(=O)O)C3)c(C)o2)cc1 (stereo unspecified)	2.6%	-1.91	i
C=CCn1c(SCc2c(C)noc2C)nc2ccccc2c1=O	-1.4%	.	+
Cc1cc(C(F)F)n2nc(C(=O)Nc3cc(C)on3)nc2n1	-1.6%	0.53	i
C/C(=N\OC(=O)c1ccc(C)cc1)c1sc(C)nc1C	-0.3%	.	i
O=C(NCc1cccnc1)c1ccc(CS(=O)(=O)c2ccc(Cl)cc2)o1	-2.4%	0.56	i
N#CCCN(Cc1cccnc1)S(=O)(=O)c1ccc(S(=O)(=O)NC2CCCCC2)cc1	-0.8%	-0.87	i
CC(C)CC(=O)NN(C)c1nc(-c2ccccc2)nnc1C(F)(F)F	0.7%	.	i
CCOC(=O)C(=CNc1cc(C)nn1-c1ccc(C)cc1)C(=O)OCC	-2.3%	.	i
CCOC(=O)N=S(=O)(Oc1ccc([N+](=O)[O-])cc1)c1ccc(Cl)cc1 (stereo unspecified)	1.3%	.	i
Cc1ccc(-c2noc(CCC(=O)NCCCN3CCN(c4cccc(Cl)c4)CC3)n2)cc1	2.6%	-0.44	i
CC(=O)N1CCN(C(=O)c2cccc(S(=O)(=O)Nc3ccc(C)cc3)c2)CC1	3.8%	-4.83*	i
CCN(CC)CCCN1C(=O)C(O)=C(C(C)=O)C1c1cccc(OC)c1 (stereo unspecified)	-1.8%	-0.54	i
COc1ccc(N2CCN(CCNC(=O)CCNS(=O)(=O)c3cccs3)CC2)cc1	-12.1%	-0.86	i
CC(C)(C)c1cc(C(=O)NCc2ccccc2)ccn1	0.9%	-0.27	i
CCOC(=O)C1CCCN(c2cc(=O)n(Cc3ccc(F)cc3)c(=O)[nH]2)C1 (stereo unspecified)	5.7%	-0.77	i
O=C(COC(=O)CCCSc1nc2ccccc2[nH]1)NC(=O)NC1CCCC1	0.2%	.	i
CCc1ccc(N2CC(C(=O)OCC(=O)Nc3cc(C)on3)CC2=O)cc1 (stereo unspecified)	1.9%	-0.78	i
CCCN(CC1CC1)S(=O)(=O)c1ccc(S(N)(=O)=O)cc1	-7.7%	-0.57	i
O=c1c2ccccc2nnn1CSc1ncnc2ccccc12	7.9%	-0.1	i
O=C(Cn1cnc2c(nnn2-c2ccccc2)c1=O)N1CCC(Cc2ccccc2)CC1	-4.3%	2.2	i
CCCCCC(C)NC(=O)c1ccoc1C (stereo unspecified)	2.6%	.	i
O=C1NC(=O)C2C3c4ccccc4C(c4ccccc43)C12 (stereo unspecified)	-7.0%	-0.19	i
CCC(C(=O)N1CCc2ccccc2C1)n1nc(C)n2c(cc3occc32)c1=O (stereo unspecified)	-9.1%	-0.23	i
O=C1CC(C(=O)N(c2ccc(F)cc2)C(C(=O)NC2CCCC2)c2ccccn2)CS1 (stereo unspecified)	3.9%	0.8	i
CCC(=O)Nc1cccc(NC(=O)COc2ccc(OC)cc2)c1	-8.5%	-1.36	i
CC(C)(C)N1CC(c2nc3ccccc3n2Cc2ccc(Cl)cc2)CC1=O (stereo unspecified)	1.2%	.	i
O=S1(=O)N=C(Oc2cccc3ccccc23)c2ccccc21	-1.8%	.	i
CN(C)CCCN1C(=O)C(=O)/C(=C(/O)c2ccccc2)C1c1ccccn1 (stereo unspecified)	2.2%	-0.09	i
O=C(O)CCC(=O)N1CCc2cc(S(=O)(=O)NC3CCCC3)ccc21	2.8%	-0.00543	i
CC(C)(C)NC(=O)NC(=O)COC(=O)C1CC(=O)N(Cc2ccccc2)C1 (stereo unspecified)	-2.3%	-0.21	i
O=C(COC(=O)Cc1ccc(S(=O)(=O)N2CCOCC2)s1)NCc1ccccc1	2.7%	0.2	i
CC1(C)CC(=O)c2cc(C(=O)N3CCCCC3)c(=O)n(-c3ccc(Cl)cc3)c2C1	6.7%	0.68	i
Cc1noc(C)c1C(=O)Nc1ccccn1	-0.1%	-0.52	i

Only MT1-MMP reporter and Hsc70 ATP site, for some of the entries so far:
mol	MT1-MMP reporter	Hsc70 ATP site
CCCN(CC1CC1)S(=O)(=O)c1ccc(S(N)(=O)=O)cc1	i	-7.7%
O=c1c2ccccc2nnn1CSc1ncnc2ccccc12	i	7.9%

(more compounds)
SMILES	Hsc70 ATP site	WNV NS2B-NS3 inh	MT1-MMP reporter
Cc1c(C(=O)NCC(C)C)sc2nc(-c3ccc(F)cc3)cn12	-3.9%	-0.53	i
O=C(NCCN1CCOCC1)c1ccc2c(c1)ncn2C1CCCCC1	-0.2%	-0.65	i
CCOC(=O)N1CCN(C(=O)COc2ccc(Cl)cc2)CC1	1.4%	.	i
COc1cc(C2NC(C(=O)O)CS2)ccc1OCc1ccccc1C#N (stereo unspecified)	-0.2%	-0.59	i
Cc1ccc(C2/C(=C(/O)c3ccc(Cl)cc3)C(=O)C(=O)N2CC2CCCO2)o1 (stereo unspecified)	1.9%	-0.5	i
CCOC(=O)c1sc(C)c(C(N)=O)c1NC1=NCCCCC1	-2.2%	-0.2	i
Cc1ccccc1C(=O)N1CCc2ccccc2C1	8.3%	.	i
O=c1c2c3c(sc2nc2n1CCCCC2)CCCC3	3.1%	1.38	i

Screening results deposited in PubChem BioAssay by several laboratories.
